Yeast UUG start: alters start codon recognition fidelity in yeast; hit rate 0.13% among 350,000; AID 602363; activity score, % at 18.7 µM; S. cerevisiae UUG-firefly luciferase reporter, luminescence/redox ratio;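 active means replicate mean at a twofold rise or more, about +100% in these data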;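 further: firefly luciferase made from a UUG start codon reports start codon fidelity; reporter light over untreated wells divided by growth signal over untreated wells; some hits fall short of that in this replicate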
eIF4H FP inh: inhibitors of RNA binding by human eIF4H | Q15056 | eIF4H fluorescence polarization binding assay | inhibition, % at 35 µM | hit rate 0.94% among 290,000 | AID 2012;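 active means 50% or more with normal probe brightness, or confirmed in later tests; inconclusive means above 50% with abnormal brightness, or retests that disagree; inactive means below 50% or failed in later tests; about a fifth of its hits are not listed in these tables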;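 further: calls also rest on retests at 20 µM and on dose response follow-up; 0% = protein and probe with vehicle and 100% = probe without protein; strong numbers were not always called active; many hits fall short of the cut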
MT1-MMP act inh: MT1-MMP (human) activation inhibition | P50281 | HT1080 RFP-PRO-GFP cells, GFP/RFP ratio fluorescence, overnight; percent of plate control window, DMSO zero | GFP/RFP ratio change, % at 20 µM | hit rate 0.061% among 360,000;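 active means GFP/RFP ratio change of at least 30% with cell ATP level not reduced by more than half and red fluorescence within 50% of control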; further: strong numbers were not always called active
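Assay system: HT1080 RFP-PRO-GFP cells | Dosing: 20 µM single dose, 1% DMSO | Incubation: Cells overnight before dosing, compound overnight, 37 °C, 5% CO2 | Evaluation: GFP/RFP fluorescence ratio | Control set: DMSO-only wells and HT1080 RFP-L50D-GFP cell wells as references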
Rce1 inh: yeast Ras-converting enzyme inhibition; yeast membranes, quenched prenylated peptide cleavage fluorescence; calls only; hit rate 0.27% among 290,000; AID 2563;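 active means fall in fluorescence gain of 50% or more versus controls, with final raw signal at or below 3038400; inconclusive means same 50% fall but final raw signal above 3038400; inactive means fall in fluorescence gain under 50%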;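 further: plate controls were neutral control wells for no effect and wells lacking membranes for full effect; tested at 10 µM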
Target sequence (Q03530 whole entry, looked up): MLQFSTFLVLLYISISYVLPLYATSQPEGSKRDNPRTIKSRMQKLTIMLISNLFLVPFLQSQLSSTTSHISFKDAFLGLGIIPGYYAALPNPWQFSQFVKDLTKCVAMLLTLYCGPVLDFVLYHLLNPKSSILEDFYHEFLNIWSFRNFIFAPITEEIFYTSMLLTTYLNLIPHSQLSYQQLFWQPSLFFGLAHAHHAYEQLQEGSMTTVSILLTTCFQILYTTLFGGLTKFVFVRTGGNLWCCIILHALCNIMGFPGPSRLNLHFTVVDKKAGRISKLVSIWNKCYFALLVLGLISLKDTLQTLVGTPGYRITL
HIV Env fusion: blocks HIV Env-driven cell-cell fusion; HeLa-JRFL Env/CEM21 cell fusion, luciferase; inhibition, % at 12.3 µM; hit rate 1.1% among 360,000;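 active means mean replicate inhibition score of at least 50 and every replicate individually at or above 50; inconclusive means only one of the two criteria met; inactive means mean below 50 and not all replicates reaching 50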;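 further: 0% = plate neutral controls and 100% = maraviroc near 300 nM; one replicate is shown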
CSC inhib: blocks cancer stem cells; cancer stem cell-like cells viability, luminescence; inhibition, % at 7.5 µM; hit rate 1.1% among 300,000;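 active means mean at 75% or more and at least half the replicates too; inconclusive means mean and replicates disagree; tested in HMLE shEcad cells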;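 further: 0% = median of negative and 100% = median of positive control wells; the first replicate is given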
PABP FP inh: blocks human PABP binding to poly(A) RNA | P11940 | fluorescence polarization | inhibition, % at 35 µM | hit rate 1% among 290,000 | AID 2014;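 active means 50% or more with normal probe brightness, or confirmed in later tests; inconclusive means above 50% with abnormal brightness, or retests that disagree; inactive means below 50% or failed in later tests; about a fifth of its hits are not listed in these tables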;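 further: calls also rest on retests at 20 µM and on dose response follow-up; controls were probe without protein and protein plus probe with vehicle; some compounds called inactive have numbers as strong as hits; many hits fall short of the cut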
Target sequence (P11940 whole entry, looked up): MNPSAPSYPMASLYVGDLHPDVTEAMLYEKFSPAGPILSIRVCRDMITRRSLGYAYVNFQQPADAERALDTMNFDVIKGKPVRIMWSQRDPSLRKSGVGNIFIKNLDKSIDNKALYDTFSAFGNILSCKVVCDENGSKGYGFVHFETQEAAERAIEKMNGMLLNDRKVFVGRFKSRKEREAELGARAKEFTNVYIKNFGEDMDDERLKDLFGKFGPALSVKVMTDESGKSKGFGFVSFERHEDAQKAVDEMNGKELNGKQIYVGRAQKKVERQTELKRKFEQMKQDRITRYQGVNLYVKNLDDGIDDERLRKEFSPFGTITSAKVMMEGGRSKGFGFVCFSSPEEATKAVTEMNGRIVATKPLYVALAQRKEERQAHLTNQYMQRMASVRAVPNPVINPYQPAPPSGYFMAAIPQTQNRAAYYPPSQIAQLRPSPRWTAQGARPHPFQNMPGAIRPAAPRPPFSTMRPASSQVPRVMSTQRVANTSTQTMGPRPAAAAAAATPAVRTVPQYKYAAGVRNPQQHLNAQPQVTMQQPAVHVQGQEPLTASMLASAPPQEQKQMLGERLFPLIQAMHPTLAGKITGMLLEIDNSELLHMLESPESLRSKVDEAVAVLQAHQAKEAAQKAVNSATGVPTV
eIF4H FP inh retest: recorded beside eIF4H FP inh, whose call it bears; inhibition, %; compound at 20 µM; confirmation average;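 mean of two retest wells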
PABP FP inh retest: recorded beside PABP FP inh, whose call it bears; inhibition, %; compound at 20 µM; confirmation repeats;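 mean of two retest wells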
MT1-MMP act inh RFP: second read-out of MT1-MMP act inh, no call of its own (marks repeat the call); RFP signal change, %; measured here: RFP expression control read;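 0 = vehicle wells; hits needed this value within 50% of zero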
* marks the source's active call; other numbers are inactive results; i = inactive; ? = inconclusive; . = not tested or not shown; & = joins results of further samples; [ ] = remark or other dose. Compounds were not picked by outcome (roughly 3% active in at least one column).

SMILES | Yeast UUG start | eIF4H FP inh | MT1-MMP act inh | MT1-MMP act inh RFP | Rce1 inh | HIV Env fusion | CSC inhib | PABP FP inh | others
Cc1ccc(F)cc1NC(=O)CCOc1ccccc1 | 12 | -6 | 1 | -2 | i | 11 | -4 | 6
Cc1cc2oc(=O)c(CC(=O)O)c(C)c2c2occ(C(C)(C)C)c12 | -9 | -6 | -2 | -4 | i | -24 | 31 | -4
O=C(N/N=C/c1ccc(-c2ccc([N+](=O)[O-])cc2)o1)c1cccnc1 | -6 | 2 | -6 | -2 | i | -22 | -7 | -6
COc1ccc(NC(=O)C(CC(=O)O)Cc2ccccc2)cc1 (stereo unspecified) | -12 | 6 | 0 | 7 | i | -3 | -7 | -4
O=C(CSc1ncn[nH]1)c1ccc(OC(F)F)cc1 | . | -2 | -2 | -1 | i | -6 | -19 | 8
Cc1ccc(CCNC(=O)C2CCN(S(=O)(=O)c3ccc4c(c3)NC(=O)C(C)S4)CC2)cc1 (stereo unspecified) | -34 | 1 | -5 | -23 | i | 5 | -16 | 25
Cc1cnn(-c2ccc3nnc(-c4ccc(Br)cc4)n3n2)c1 | -9 | -5 | -7 | -10 | i | -52 | -2 | -2
NC[C@H]1O[C@@H](n2ccc(N)nc2=O)[C@H](O)[C@@H]1O | -22 | . | 0 | 1 | . | 31 | . | .
O=[N+]([O-])c1ccccc1Nc1cccc(F)c1 | -9 | . | 2 | 2 | . | 6 | . | .
O=C(c1cc(Br)c[nH]1)N1CCSCC1 | -16 | 0 | 3 | 2 | i | 7 | 1 | 4
CC1=C(C(=O)N2CCCCCC2)CC(CC(=O)NC2CCCCC2)C(=O)N1Cc1ccc(C(C)(C)C)cc1 (stereo unspecified) | -6 | . | -1 | -5 | . | 3 | . | .
CC1=CCC2C(=O)N(c3cc(C)on3)C(=O)C2C1 (stereo unspecified) | -6 | -5 | -1 | 5 | i | . | -4 | -2
Cc1nc(-c2ccccc2)sc1C1(C)CC(c2ccc(C#N)cc2)=NO1 (stereo unspecified) | -15 | -10 | -3 | -1 | i | 2 | -1 | 8
Cc1ccc(-n2c(-c3ccc(Br)cc3)n[nH]c2=S)c(C)c1 | -32 | . | -7 | -9 | . | -26 | . | .
CC(CCc1ccccc1)NC(=O)CSc1nccc(=O)[nH]1 (stereo unspecified) | -6 | 1 | 0 | -1 | i | . | . | -7
CN(C)CCOC(=O)c1cccc(Br)c1 | 0 | -3 | -1 | 2 | i | . | 4 | 6
Cc1ccc(S(=O)(=O)N2CCN(CC(=O)N/N=C\c3ccccn3)CC2)cc1 | -12 | -7 | -1 | 2 | i | -1 | 3 | -1
COc1cccc(C2C(C(N)=O)=C(C)Nc3nc(-c4ccccc4Cl)nn32)c1 (stereo unspecified) | 0 | -3 | 1 | 1 | i | -64 | -15 | 1
CC[C@H](C)C(C(=O)N1CCN(C(=O)OC(C)(C)C)CC1)n1cc(C(CC(C)C)NC(=O)OC(C)(C)C)nn1 (stereo partly specified) | 13 | -1 | -6 | -12 | i | 13 | -6 | -2
CCc1cccc(OCC(=O)Nc2cc(S(=O)(=O)N3CCOCC3)ccc2N2CCCC2)c1 | 19 | -5 | -4 | -2 | . | -28 | 26 | 3
Cc1ccc(C)c(N2CCN(C(=O)C3CCC3)CC2)c1 | -1 | 7 | -3 | 0 | i | 5 | -5 | 8
O=C(CN(C(=O)CNS(=O)(=O)c1ccc(F)cc1)C1CCCC1)NCc1ccco1 | -8 | 2 | 4 | 3 | i | 9 | -4 | -1
Cc1nn(-c2ccccc2)c2c1C(c1ccc([N+](=O)[O-])cc1)N1C(=N2)C(=O)Nc2ccccc21 (stereo unspecified) | . | -9 | -31 | -35 | i | 11 | 8 | 1
Cc1ccc(CS(=O)(=O)CCC(=O)NCCN(C)Cc2ccccc2)cc1 | -12 | -6 | -1 | 3 | i | 10 | -9 | 4
CCOc1ccccc1N(C(=O)Nc1cccc(Cl)c1)C1=NC(C)CS1 (stereo unspecified) | -2 | -2 | 3 | 5 | i | 7 | 0 | 8
SMILES | Yeast UUG start | eIF4H FP inh | MT1-MMP act inh | MT1-MMP act inh RFP | Rce1 inh | HIV Env fusion | CSC inhib | PABP FP inh | others
CCOC(=O)CCCCCC(=O)Nc1ccc2c(c1)C(=O)N([C@@H](C)CO)C[C@H](C)[C@H](CN(C)C(=O)c1ccccc1)OCCCC[C@H](C)O2 | -3 | . | -2 | 2 | . | 0[16.7 µM] | . | .
CCOC(=O)c1sc(NC(C)=O)nc1-c1ccccc1 | -10 | -2 | -2 | -6 | i | . | . | 2
O=C(CSc1nnc(NC(=O)C2CC2)s1)NCc1ccc(F)cc1 | -19 | -3 | 3 | 4 | i | . | -19 | 4
O=C(COc1ccc2ccc(=O)oc2c1)Nc1ccc(N2CCCCC2)cc1 | -17 | . | 4 | 3 | . | 2 | -7 | .
CC(=O)N1c2ccc(S(=O)(=O)N(C)CC(=O)N3CCCC3)cc2CC1C (stereo unspecified) | -15 | . | 2 | -3 | i | . | -13 | .
O=C(CNc1cccc2ccccc12)N/N=C/c1ccc[nH]1 | . | 4 | 21 | -36 | i | -7 | 35 | 4
Cc1ccc(NC(=O)NCc2cccn2C)cc1C | -11 | 2 | 2 | 3 | i | -8 | . | -3
O=C(c1cc2c(s1)CCCC2)N1CCN(CCO)CC1 | -5 | . | -1 | 0 | . | 16 | -5 | .
Nc1nnn(CC(=O)N/N=C/c2ccc(O)cc2)n1 | -11 | -7 | 14 | 10 | i | 4 | -9 | 15
C[C@H](CO)N1C[C@H](C)[C@@H](CN(C)C)Oc2c(NC(=O)c3ccncc3)cccc2C1=O | -10&-12 | . | 4 | 1 | . | 0 | . | .
CC(C)(C)Nc1nc(SCc2ccccc2)nc(N2CCOCC2)n1 | -13 | -8 | -14 | -7 | i | 28 | 3 | 0
COc1ccccc1Cc1c(-c2ccc(C)cc2)nc2ccc(Br)cn12 | -19 | . | -5 | 0 | . | -171 | . | .
C/C=C(/C)C(=O)Nc1cccc(C2=NOC3(C2)C[C@H](C(N)=O)N(C(=O)c2ccc(Cl)cc2)C3)c1 (stereo partly specified) | 12 | -7 | 9 | 1 | i | 9 | . | 2
COc1ccc(-c2nnc(SC(C)C(=O)NC3CC3)o2)cc1 (stereo unspecified) | -1 | . | 4 | 0 | . | 20 | . | .
CC(C)(O)C#Cc1ccc(C(=O)N2CCCC(CCC(=O)NCc3ccccc3F)C2)cc1 (stereo unspecified) | -26 | . | -1 | -3 | i | -7 | -11 | .
O=C(c1ccco1)N1CCN(c2ccc(N3CCCCC3)nn2)CC1 | -13 | . | -1 | 5 | i | -52 | -6 | .
COC(=O)c1[nH]c2ccc(C)cc2c1NC(=O)CN1CCN(c2ccc(F)cc2)CC1 | -2 | 8 | -2 | -15 | i | 47 | -4 | 3
CCCC(=O)Nc1ccc(C(=O)NN2C(=O)c3ccccc3C2=O)cc1 | . | -7 | 4 | 8 | i | -3 | 4 | 4
CCCOC(=O)c1ccc(OC(=O)c2ccco2)cc1 | -8 | 3 | -3 | 1 | i | -48 | 9 | -6
COc1cccc(NC(=O)c2nn(C)cc2Br)c1 | . | . | 2 | 1 | i | . | 3 | .
COc1ccc(S(=O)(=O)N2CCN(c3ccccc3OC)CC2)cc1OC | -3 | 3 | 9 | 0 | i | . | -1 | 6
Cc1ccc(CS(=O)(=O)CCC(=O)N2CCOCC2)cc1 | -10 | -9 | 2 | 4 | i | . | -13 | -15
COc1ccccc1/C=C/C=N/N1CCN(Cc2cccc3ccccc23)CC1 | 2 | -1 | 1 | 0 | i | . | 58 | 0
COc1ccc(OC)c(C2C(C(C)=O)=C(O)C(=O)N2Cc2cccnc2)c1 (stereo unspecified) | -10 | 98 | 3 | 0 | i | -61 | -9 | 10 | eIF4H FP inh retest=2;PABP FP inh retest=9
C=CCc1c(C)nc2cc(-c3ccccc3)[nH]n2c1=O | -23 | -4 | -15 | -2 | i | -14 | -4 | -12

Reprinted at random: 4 records from the list.
SMILES | Yeast UUG start | eIF4H FP inh | MT1-MMP act inh | MT1-MMP act inh RFP | Rce1 inh | HIV Env fusion | CSC inhib | PABP FP inh | others
CCCC(=O)Nc1ccc(C(=O)NN2C(=O)c3ccccc3C2=O)cc1 | . | -7 | 4 | 8 | i | -3 | 4 | 4
C/C=C(/C)C(=O)Nc1cccc(C2=NOC3(C2)C[C@H](C(N)=O)N(C(=O)c2ccc(Cl)cc2)C3)c1 (stereo partly specified) | 12 | -7 | 9 | 1 | i | 9 | . | 2
O=C(c1cc2c(s1)CCCC2)N1CCN(CCO)CC1 | -5 | . | -1 | 0 | . | 16 | -5 | .
COc1ccccc1/C=C/C=N/N1CCN(Cc2cccc3ccccc23)CC1 | 2 | -1 | 1 | 0 | i | . | 58 | 0

Filtered by structure: those above containing a Cl atom.
SMILES | Yeast UUG start | eIF4H FP inh | MT1-MMP act inh | MT1-MMP act inh RFP | Rce1 inh | HIV Env fusion | CSC inhib | PABP FP inh | others
COc1cccc(C2C(C(N)=O)=C(C)Nc3nc(-c4ccccc4Cl)nn32)c1 (stereo unspecified) | 0 | -3 | 1 | 1 | i | -64 | -15 | 1
CCOc1ccccc1N(C(=O)Nc1cccc(Cl)c1)C1=NC(C)CS1 (stereo unspecified) | -2 | -2 | 3 | 5 | i | 7 | 0 | 8
C/C=C(/C)C(=O)Nc1cccc(C2=NOC3(C2)C[C@H](C(N)=O)N(C(=O)c2ccc(Cl)cc2)C3)c1 (stereo partly specified) | 12 | -7 | 9 | 1 | i | 9 | . | 2

Continuation:
SMILES | Yeast UUG start | eIF4H FP inh | MT1-MMP act inh | MT1-MMP act inh RFP | Rce1 inh | HIV Env fusion | CSC inhib | PABP FP inh | others
NS(=O)(=O)c1cccc(NC(=O)CSc2nnc3n2CCCCC3)c1 | -14 | . | -1 | 2 | . | . | 2 | .
CCC(=O)OC1c2ccccc2C(=O)N1Cc1ccccc1 (stereo unspecified) | -9 | 12 | -2 | 2 | i | 8 | -4 | 2
CCCCCOc1ccc(NC(=O)c2cc(SC)ccc2Cl)cc1 | 34 | -2 | 1 | 1 | i | -3 | 4 | -6
CSc1ccc(CNC(=O)C2(C)CCCN2C)cc1 (stereo unspecified) | -13 | . | 0 | 0 | . | -23 | . | .
Cc1ccccc1Nc1nnc(-c2ccc(C(=O)NCCO)cc2)c2ccccc12 | -13 | 6 | -2 | -4 | i | 7 | -5 | 10
O=C(Nc1ccc(NC(=O)c2ccccc2Cl)nc1)c1ccco1 | -19 | 0 | 0 | -3 | i | -9 | -6 | -5
CCc1ccc(NS(=O)(=O)c2ccc(C)c(C(=O)N3CCOCC3)c2)cc1 | -4 | . | -7 | 0 | i | 9 | -9 | .
Cc1ccc(Nc2ncc3c(n2)CC(C)(C)CC3=O)cc1 | . | -10 | 1 | -2 | i | -49 | -3 | -5
CC(=O)c1c(C)oc2ccc(N(C(C)=O)S(=O)(=O)c3cccc4cccnc34)cc12 | . | -6 | -18 | -30 | i | 2 | 4 | -3
Clc1ccccc1CSc1nnc([C@@H]2CCCN2)o1 | -2 | 15 | 1 | 2 | i | 1 | -12 | 0
NC(=O)c1c(NC(=O)c2ccccc2)sc2c1CCN(Cc1ccccc1)C2 | -10 | ? | -40 | -3 | i | -42 | 20 | ?
Cc1ccc(S(=O)(=O)c2cn(CC(=O)Nc3ccccc3)c3ccc(F)cc3c2=O)cc1 | -19 | -7 | -1 | -3 | i | -63 | -8 | 10
